AmpC nodet inh – AmpC beta-lactamase inhibition, detergent-free assay | AID 585 | P00811 | Potency, µM (top dose mostly 28.7 µM), for the others: at the highest dose activity change, negative = inhibition | AmpC nitrocefin hydrolysis, absorbance 480 nm, no detergent; potencies from a single point are estimates | 1.8% of 71,000 active; active = falling curve, for most hits resting on a single point; inconclusive = weak or doubtful change; inactive = flat or rising curve; further: % of control where 0% means no effect; about half of the hits show no inhibition at the top dose; a quarter of the inactives give rising signals
Target sequence (P00811 whole entry, looked up): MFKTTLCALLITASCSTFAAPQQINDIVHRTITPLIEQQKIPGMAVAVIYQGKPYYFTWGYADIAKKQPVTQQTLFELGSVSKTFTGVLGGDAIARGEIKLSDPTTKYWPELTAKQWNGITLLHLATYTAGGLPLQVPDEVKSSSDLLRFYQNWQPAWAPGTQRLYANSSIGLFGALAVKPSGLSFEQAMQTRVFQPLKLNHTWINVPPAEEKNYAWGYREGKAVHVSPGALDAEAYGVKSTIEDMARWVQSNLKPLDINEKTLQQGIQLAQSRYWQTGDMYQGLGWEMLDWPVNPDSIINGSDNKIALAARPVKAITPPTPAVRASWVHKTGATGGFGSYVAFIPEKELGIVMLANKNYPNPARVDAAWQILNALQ
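AmpC, 20 mM phosphate pH 7.0; 15 min cpd preinc, RT; start with nitrocefin (800 uM stock); A480 kinetic read, 20 s intervals, 4 min. No-enzyme wells = negative control.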
The depositor's hits bear a star; [ ] = another dose, or the depositor's remark. Potency means the concentration at half of the fitted maximal effect. Only part of the results is shown; rates above refer to the full screens.

SMILES | AmpC nodet inh
NC(=O)CN(c1ccccc1)C1SC(=O)N(Cc2ccccc2)C1=O (centres undefined) | 38%
CSc1nnc2n(CCc3ccccc3)c(=O)c3c4c(sc3n12)CCCC4 | 1%
Cc1ccc(NC(=O)C(C)N2C(=O)c3ccccc3C2=O)cc1 (centres undefined) | -20%
CC(=O)Oc1cc2c(C(=O)NCCCN3CCOCC3)c(C)oc2c2ccccc12 | 118%
Cc1ccc(S(=O)(=O)N2CCC(C(=O)N3CCC4(CC3)OCCO4)CC2)cc1 | 35%
COc1ccc(C(=O)NCCn2cc(SCC(=O)Nc3nnc(C)s3)c3ccccc32)cc1 | 39%
Cn1c(=O)c2c(ncn2CC(=O)N2CCOCC2)n(C)c1=O | -6%
Cc1ccc2c(c1)[nH]c1c(=O)n(CCN3CCCCC3)cnc12 | 7%
COCCCn1c(SCC(=O)NC(C)(C)C)nnc1-c1ccccc1 | -2%
CCCCCOC(=O)c1cc(=O)[nH]c2ccccc12 | -4%
Cc1ccnc(NC(=O)CCC(=O)N(CC(=O)NC2CCCCC2)c2cccc(C)c2C)c1 | 114%
Nc1c(S(=O)(=O)c2cccs2)c2nc3ccccc3nc2n1/N=C/c1cccc(O)c1 | -5%
CC(=O)c1cnc(N2CCCCC2)nc1C | -3%
COc1ccc(Cl)cc1Nc1nc(NCCO)nc(N2CCCC2)n1 | 61%
O=C(CN1CCN(S(=O)(=O)c2ccc(F)cc2)CC1)Nc1cccc(C(F)(F)F)c1 | 59%
CCC(=NCc1ccco1)c1c(O)[nH]c(=O)[nH]c1=O | -8%
[O-]/[N+](=C\c1ccccc1)[C@@H]1CCCC[C@@H]1/[N+]([O-])=C/c1ccccc1 | 6%
CCOCC(=O)NCc1ccc2c(c1)OCO2 | -12%
Cc1[nH]c2c(C(F)(F)F)cccc2c1CCN | -2%
CN(CC(=O)N1CCN(c2ccccn2)CC1)S(=O)(=O)c1ccc2ccccc2c1 | 72%
CC(=O)c1cc(C#N)c(SCC(=O)OC(C)C)nc1C | 0%
CN1CC[C@@]2(CCCN(S(=O)(=O)c3ccccc3)C2)C1 | -2%
COC(=O)c1ccccc1S(=O)(=O)N(Cc1cc2ccc(OC)cc2[nH]c1=O)CC1CCCO1 (centres undefined) | 100%
CCN(CC)C(=O)c1cc2cc(Br)ccc2oc1=O | 5%

Random excerpt: 5 entries already listed.
SMILES | AmpC nodet inh
CCC(=NCc1ccco1)c1c(O)[nH]c(=O)[nH]c1=O | -8%
CCOCC(=O)NCc1ccc2c(c1)OCO2 | -12%
COc1ccc(Cl)cc1Nc1nc(NCCO)nc(N2CCCC2)n1 | 61%
[O-]/[N+](=C\c1ccccc1)[C@@H]1CCCC[C@@H]1/[N+]([O-])=C/c1ccccc1 | 6%
CC(=O)c1cnc(N2CCCCC2)nc1C | -3%

Continued.
SMILES | AmpC nodet inh
Cc1cc(C)c(OCC(=O)Nc2nnn(C)n2)c(Br)c1 | 13%
CC1=C(C(=O)OCc2ccccc2)C(c2ccccc2)NC(=O)N1CCCCCC(=O)O (centres undefined) | 19%
COc1ccccc1CNc1ncncc1-c1ccoc1 | 61%
CCSCCOC(=O)C1=C(C)NC(=O)NC1c1cc(OC)ccc1OC (centres undefined) | 20%
CNCCOCC(O)CSc1ccccc1 (centres undefined) | -6%
Cc1onc(-c2ccccc2Cl)c1C(=O)OCC(=O)c1ccc2c(c1)OCCO2 | -15%
CCOCCCNC(=O)C1CCCCN1S(=O)(=O)c1ccc(F)cc1 (centres undefined) | 17%
O=c1cc(N2CCC(Cc3ccccc3)CC2)[nH]c(=O)n1C1CCCCC1 | -6%
O=S(=O)(CCSc1ccccn1)c1nc2ccccc2s1 | 9%
Cc1cccc(NC(=O)CSc2nc3c(c(=O)[nH]2)CCC3)c1C | -8%
Cc1ccc(C(=O)C2=C(O)C(=O)N(CCCN(C)C)C23C(=O)N(C)c2ccccc23)o1 (centres undefined) | -2%
CC(=O)N1CCN(CCN=CC2=C(O)CC(c3cccs3)CC2=O)CC1 (centres undefined) | 4%
CCCC(c1c(C)n(C)n(-c2ccccc2)c1=O)c1c(C)n(C)n(-c2ccccc2)c1=O | 35%
CCCc1cc(=O)n2[nH]c(C)c(-c3ccccc3)c2n1 | -18%
O=C(O)C=C1C2CC3CC(C2)CC1C3 | -5%
CC(C(=O)c1c[nH]c2ccccc12)N1CCc2ccccc2C1 (centres undefined) | 16%
COCCNC(=O)C(c1ccc(C)o1)N(Cc1cccs1)C(=O)c1snc(C(N)=O)c1N (centres undefined) | 54%
CCOCCCNC(=O)Cc1cc(=O)[nH]c(=O)[nH]1 | -1%
CN(C)c1ncnc2ccc(-c3ccoc3)cc12 | 16%
N#Cc1nc(COc2ccccc2)oc1N1CCN(Cc2ccccc2)CC1 | 71%
COc1cc(C(=O)OCn2nnc3ccccc3c2=O)cc(OC)c1OC | 74%
COc1cccc(Cn2c(=O)c(CCc3ccccc3)nc3cnc(N4CCNCC4)nc32)c1 | 99%
Cc1ccc(OCc2nnc(SCC(=O)Nc3ccc4c(c3)OCCO4)n2Cc2ccco2)cc1 | 12%
COc1cc(NC(=O)C2CCCCC2)c(OC)cc1NC(=O)CN1CCCCC1 | 55%

Molecules from the list above containing bromine, in the order listed:
SMILES | AmpC nodet inh
CCN(CC)C(=O)c1cc2cc(Br)ccc2oc1=O | 5%
Cc1cc(C)c(OCC(=O)Nc2nnn(C)n2)c(Br)c1 | 13%

Further entries:
SMILES | AmpC nodet inh
O=C(NCCN1CCOCC1)c1ccc(-c2ccccc2)cc1 | 39%
CC1(C)Cc2c(sc3c2c(=N)n(Cc2ccco2)c(=O)n3CC(=O)Nc2ccc(Cl)cc2)CO1 | 37%
CN(c1ccccc1C(=O)O)S(C)(=O)=O | -9%
Cc1nnc(N(C)C(=O)c2cccnc2)s1 | 2%
COc1ccc(S(=O)(=O)Nc2c(C)ccc3nsnc23)cc1OC | 3%
Cc1ccc2occ(C(c3nnnn3C3CCCC3)N3CCN(C(=O)c4ccco4)CC3)c(=O)c2c1 (centres undefined) | 125%
Cc1cc(C)n2nc(C(=O)Nc3ccc4c(c3)OCO4)nc2n1 | -14%
CCCCN(C)C(=O)c1cn(CC)c2ccc(S(=O)(=O)N(C)C)cc2c1=O | 36%
O=C(COC(=O)C1CC(=O)N(Cc2ccco2)C1)c1ccc(OC(=O)c2ccco2)cc1 (centres undefined) | 86%
O=C(Nc1cccc(F)c1)N1CCCC2(CCN(C(=O)Oc3ccccc3)CC2)C1 | 45%
O=C(CN(Cc1ccco1)C(=O)CNS(=O)(=O)c1ccc(F)cc1)NCc1ccc(F)cc1 | 23%
CCc1cccc(CC)c1N(COC)C(=O)Cn1ccccc1=N | 21%
Cc1nnc(SCCn2c(N3CCCCC3)nc3c2c(=O)n(C)c(=O)n3C)s1 | 25%
Cc1cccc(CNc2ncncc2-c2ccccc2CN(C)C)c1 | -4%
O=C(CN1CCN(S(=O)(=O)c2ccc(F)cc2)CC1)Nc1ccccc1F | 47%
Cc1ccc(-n2c(=O)[nH]cc(C(=O)Nc3ccc4c(c3)OCCO4)c2=O)cc1 | -11%
Cc1cc2ccccc2c[n+]1CC(O)C[n+]1cc2ccccc2cc1C | 6%[5.75 µM]
CC(C)OC(=O)C1C2C=CC3(CN(Cc4cccs4)C(=O)C13)O2 (centres undefined) | -4%
CCc1cc(C=C(Cl)Cl)oc(=O)c1C | -3%
Cc1nn(-c2ccccc2)c(Cl)c1C(=O)Nc1c(C)n(C)n(-c2ccccc2)c1=O | 30%
N=C(N)c1ccccc1 | -8%
CC(Oc1ccc(Cl)cc1Cl)C(=O)NCc1ccncc1 (centres undefined) | 23%
Cc1cccc(NC(=O)Cn2c(=O)n3nc(CCn4nc(C)cc4C)nc3c3ccccc32)c1 | 109%
O=S(=O)(NCc1ccco1)c1ccc2c(c1)Cc1ccccc1-2 | -25%
Cc1[nH]nc2c1C(c1ccccc1)C1=C(CC(C)(C)CC1=O)N2 (centres undefined) | -6%
O=C1CCc2cc(S(=O)(=O)NC(Cc3ccccc3)C(=O)NC3CCCCC3)ccc2N1 (centres undefined) | 4µM*[single pt active]
COCCn1c(=O)cnc2cnc(OC)nc21 | 2%
CCCS(=O)(=O)N1CCC(C(=O)NCCCN2CCCC2=O)CC1 | 2%
COCCn1c(=O)c(-c2ccc(Cl)cc2)nc2cnc(Oc3ccc(OC)cc3)nc21 | -7%
COCC(=O)N1CCC2(CC1)CCN(C(c1ccccc1)c1ccccc1)CC2 | 39%
Cc1occc1C(=O)Nc1sc2c(c1C(N)=O)CCCCC2 | -12%
COc1ccc(C2CC(=O)c3cnc(NC(=O)c4ccccc4)nc3C2)c(OC)c1 (centres undefined) | 19%
CC(=NCCC1=CCCCC1)c1c(O)n(C)c(=O)n(C)c1=O | 34%
COc1cc(OC)c(C2C(C(=O)Nc3ccc(C)cc3C)=C(C)Nc3ncnn32)cc1OC (centres undefined) | 2%
Cc1ccc(CNC(=O)Cn2c(=O)oc3ccccc32)o1 | -10%
COCCn1c(=O)c(-c2cccs2)nc2cnc(Oc3ccc(OC)cc3)nc21 | 53%
CCn1c(=O)n(CC(=O)NCc2ccco2)c(=O)c2ccccc21 | 4%
O=C(c1cccc(F)c1)N1CCC2(CC1)CCN(c1ccccn1)CC2 | 60%
COC(=O)c1cc(OC)c(OC)cc1NC(=O)c1ccco1 | 103%
COc1ccc(S(=O)(=O)Cc2ccc(C(=O)N3CCC(C(N)=O)CC3)o2)cc1 | 6%
CCOc1c(CNCCNC(=O)c2nonc2N)cccc1OC | -6%
Cc1ccc(S(=O)(=O)CCC(=O)c2ccc(O)cc2O)cc1 | 13µM*
O=C(Cn1c2c(c(-c3ccccc3Cl)cc1=O)CCC2)N1CCC2(CC1)OCCO2 | 69%
Cc1ccc2oc(=O)c3cc(C(=O)N4CCN(C(=O)c5ccco5)CC4)sc3c2c1 | 2%
Cc1c(C(=O)N2CCCCC2)oc2ccc(S(=O)(=O)N3CC(C)CC(C)C3)cc12 (centres undefined) | 97%
N#CCSc1nc2cc(C(=O)N3CCC(C(N)=O)CC3)ccc2c2nc3ccccc3n12 | 130%
Cc1ccc2[nH]c3c(c2c1)CN(C(=O)CN1CCN(Cc2ccc4c(c2)OCO4)CC1)CC3 | 104%
COc1nc(-c2ccc(Cl)cc2)ccc1-c1noc(-c2ccco2)n1 | -15%
O=C(Nc1ccccc1)c1cnc2n(c1=O)CCS2 | 7%
Cc1cc(C)n(-c2cc(-c3ccccc3)nc(C)n2)n1 | -6%
COc1ccc(-c2noc(CSc3nnc(-c4ccncc4)n3-c3ccc(F)cc3)n2)cc1OC | 143%
O=C(NC1=NCCS1)c1ccc(Cl)s1 | -5%
CC(=O)Nc1ccc(OCC(O)Cn2nc(C)nc2C)cc1 (centres undefined) | -3%
Nc1nc(-c2cccnc2)nn1S(=O)(=O)c1ccccc1 | -5%
COC(=O)c1cc(NC(=O)c2nccnc2C(=O)O)cc(C(=O)OC)c1 | 3%
O=C(Nc1ccc(N2CCCCC2)cc1)c1cccnc1 | 14%
CCC(C)(C)NC(=O)C(c1cccn1C)N(C(=O)Cn1nnc2ccccc21)c1ccccc1OC (centres undefined) | 105%
O=C(c1cccn2c(=O)c3ccccc3nc12)N1CCN(Cc2ccc3c(c2)OCO3)CC1 | 112%
CN(Cc1ccco1)c1ncnc2ccc(-c3ccccc3C#N)cc12 | 72%
CN(C)S(=O)(=O)c1ccc(C(=O)Nc2ccc(CN3CCCC3)cc2)cc1 | -7%
New compounds follow
SMILES | AmpC nodet inh
COC(=O)c1sc(NC(=O)c2ccc(Cn3cc(Cl)cn3)o2)c(C#N)c1C | -16%
CC(C)Nc1ccccc1 | 0%
O=C1CC2(CCCCC2)Oc2ccc(OCC(=O)N3CCOCC3)cc21 | 54%
CC1CN(S(=O)(=O)c2ccc(NC(=O)CCN3C(=O)c4ccccc4C3=O)cc2)CC(C)O1 (centres undefined) | 58%
CC(=O)Nc1cc(C(=O)O)ccc1S(=O)(=O)c1ccc(C)cc1 | -9%
Cc1c2c(nc3c(C(=O)NC4CCCC4)cnn13)CCCC2 | 40%
CC(=C1C(=O)c2ccccc2C1=O)N1CCC(C(N)=O)(N2CCCCC2)CC1 | 18%
C/C(Cl)=C\Cn1c(Nc2cccc(C)c2)nc2c1c(=O)n(C)c(=O)n2C | 70%
CCOc1ccc(C2CC(c3ccccc3C)n3nc(N)nc3N2)cc1 (centres undefined) | 67%
c1ccc(-c2cn3nc(-c4ccccc4)sc3n2)cc1 | 0%
COc1ccccc1N1CCN(C2=NS(=O)(=O)c3ccccc32)CC1 | 22%
COC(=O)c1ccccc1NC(=O)C1CCCN(S(=O)(=O)c2ccc(F)cc2)C1 (centres undefined) | 23%

Four entries from above, as tab-separated lines:
Compound	AmpC nodet inh
COc1ccc(Cl)cc1Nc1nc(NCCO)nc(N2CCCC2)n1	61%
O=C(CN1CCN(S(=O)(=O)c2ccc(F)cc2)CC1)Nc1cccc(C(F)(F)F)c1	59%
CCC(=NCc1ccco1)c1c(O)[nH]c(=O)[nH]c1=O	-8%
[O-]/[N+](=C\c1ccccc1)[C@@H]1CCCC[C@@H]1/[N+]([O-])=C/c1ccccc1	6%

(more compounds)
SMILES | AmpC nodet inh
COc1cccc(NC2c3ccccc3C(=O)N2Cc2ccco2)c1 (centres undefined) | 19%
CC(C)C(c1nnnn1C(C)(C)C)N1CCN(c2cccc(Cl)c2)CC1 (centres undefined) | 106%
O=C(CSc1nnnn1-c1ccc2c(c1)OCCO2)Nc1nc2c(s1)CCCC2 | -24%
CCOC(=O)c1[nH]c(C)c(/C(O)=C2\C(=O)C(=O)N(CCCN3CCOCC3)C2c2cccnc2)c1C (centres undefined) | 10%
O=C(NCCSCc1ccco1)Nc1ccc(Cl)cc1 | -1%

Source: PubChem BioAssay
